Screening data deposited in PubChem by Fisher Drug Discovery Resource Center.
NPYLR7 ag – activates Aedes aegypti NPYLR7 receptor. HEK293T NPYLR7/Galpha15, GCaMP6s calcium fluorescence. activation, % at 10 µM. actives 0.15% (n = 270,000); in the data active = activation above about 40%;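 note: 0% = vehicle and 100% = reference agonist at the receptor; some compounds past the cut are filed as inactive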
NPYLR7 ag max-min – further read-out of NPYLR7 ag, marked with its call; activation, %; measured here: Max-Min RFU normalised activation; some inactives read as strong as hits;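 span of the calcium signal over five minutes; 0% = vehicle and 100% = native peptide agonist; compound fluorescence can raise it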
Numbers without * were called inactive; & = joins results of further samples. The list is partial, so the mix of outcomes need not match the whole.

Compound	NPYLR7 ag	NPYLR7 ag max-min
CN(Cc1cc2n(n1)CCNC2)Cc1cc(-c2ccccn2)no1	3	0
COc1cc(COc2ccc(-c3nnco3)cc2)ccc1OC(F)F	-1	5
COC(=O)c1ccc(COC(=O)c2ccc(OC)cc2)cc1	4	0
O=C(c1csc(CSc2nnc(-c3ccncc3)n2-c2ccccc2F)n1)N1CCN(C/C=C/c2ccccc2)CC1	-3	-1
CCCCN(C(C)=O)c1c(CC)nc2ccc(C(=O)NCCNC(C)=O)cn12	-5	-9
N#Cc1c(NC(=O)c2cccc(Cl)c2)sc2c1CCCC2	4	4
Cc1cnn(CCCNC(=O)C2CSCN2C(=O)C(C)(C)C)c1 (centres undefined)	1	0
COc1ccc(-c2c(C)nn3c(N4CCN(C)CC4)cc(C)nc23)cc1OC	3	1
COCC(=O)N1CCCC(C(=O)N(C)Cc2cc(C(C)(C)C)n[nH]2)C1 (centres undefined)	8	7
COc1ccccc1-n1c(C)nnc1SCc1ccc(C(=O)N2CCOCC2)cc1	-6	5
CCC1CN(CC(=O)NCC2CCCN(CCc3ccccc3)C2)Cc2cc(OC)ccc2O1 (centres undefined)	2	-1
Cc1cccc(NC2=C(n3nnc4ccccc43)C(=O)c3ccccc3C2=O)c1	1	-1
CC(/C=C1N=C(/C=C/c2ccc(C)cc2)OC\1=O)=C\c1ccccc1	-2	-4
C=CCn1c(SCC(=O)Nc2ccccc2)nnc1-c1ccco1	3	9
COCC1(C(=O)NCc2cccnc2Oc2ccc(F)c(F)c2)CC1	2	-1
CN(C1(C)CCS(=O)(=O)C1)S(=O)(=O)c1ccc(Cl)c(Cl)c1 (centres undefined)	-1	13
O=C(O)C1C2C=CC(C2)C1C(=O)Nc1nccs1 (centres undefined)	-1	-2
CCC(C)Sc1nnc(C)c2cnn(-c3ccccc3)c12 (centres undefined)	-13	-20
Cc1cc(F)ccc1Oc1cc(N2CCN(C(=O)c3ccco3)CC2)ncn1	15	17
CCOC(=O)c1cnc(Nc2nc3ccccc3o2)nc1CSc1nnc(C)s1	4	1
CC1Cc2ccccc2N1Cc1cc(=O)c(OCC(=O)Nc2cc(C(F)(F)F)ccc2Cl)co1 (centres undefined)	-1	31
O=C(O)Cn1cc(Br)c(=O)[nH]c1=O	0	-2
COc1ccc(CC2CCN(C(=O)C(C)Oc3ccccc3)CC2)cc1 (centres undefined)	0	8
CC(C)(C)CC(=O)N1CCC(n2cc(C3(O)CCCC3)nn2)CC1	-1	-3
CCOC(=O)c1cc(C2CC2)n(C2CCN(C(=O)c3sc4ccccc4c3Cl)CC2)n1	3	2
Cc1cn2c3c(=O)n(CC(N)=O)c(=O)n(C)c3nc2n1CC(C)C	-3	-4
O=C(O)c1nnc(N2CCCC2)c2ccccc12	25	12
CC1CCC(N(C)C(=O)c2cc(S(=O)(=O)NC(C)C)ccc2Br)CC1 (centres undefined)	3	0
CCc1cccc2c(C(CC(=O)N3CCc4ccccc4C3)c3ccc(Cl)c(Cl)c3)c[nH]c12 (centres undefined)	4	9
CCn1ccnc1CN(C)Cc1cn(-c2ccc(F)cc2F)nc1-c1ccccc1C	12	12
COc1cccc(-n2c(SCC(=O)Nc3nnc(C)s3)nc3c([nH]c4ccccc43)c2=O)c1	-1	57
CS(=O)(=O)c1ccc(C(=O)NCCCc2nc(C3CC3)n[nH]2)cc1	1	-2
CSCC(=O)Nc1nc(C)c(Cc2ccccc2F)s1	6	3
O=C(O)c1ccccc1CSC1=NCCS1	-1	-3
Cn1cnc(S(=O)(=O)Nc2cccc(Cl)c2C(=O)O)c1	10	9
CCOc1ccccc1-n1c(-c2ccccc2)cc(C(=O)NC(Cc2ccccc2)c2ccccc2)c1C (centres undefined)	9	16
CC(C)(CNc1ncnc2sc3c(c12)CCC3)N1CCOCC1	7	1
CCC1(C)Cc2ccccc2-c2nc(NCCCO)[nH]c(=O)c21 (centres undefined)	-1	18
Cc1ccsc1C=CC(=O)Nc1nccs1	10	5
C=CCN(Cc1csc(COc2ccccc2C(C)C)n1)C(=O)c1ccc2c(c1)OCO2	-3	-1
COc1nc(-c2cccc(F)c2)n(-c2ccc(NCC(O)COC(C)(C)C)cc2)n1 (centres undefined)	-14	-1
O=C(COc1ccc(C(=O)c2ccccc2)cc1)Nc1ccccn1	1	0
COC(=O)C1CCN(C(=O)Cn2cc(C(F)(F)F)cc(Cl)c2=O)CC1	1	5
CC1=CC(=C2C(=O)NC(=S)NC2=O)C=C(C)O1	4	10
CCC(Sc1ccc2nnc(-c3ccccn3)n2n1)C(=O)OC (centres undefined)	-1	-5
COc1ccc(C(=O)N2CCNCC2C(=O)N2CCCC2)c(OC)c1OC (centres undefined)	0	-6
COc1ccc(-n2c(SCC(=O)N3CCOCC3)nc3sc4c(c3c2=O)CCCC4)cc1	-6	-10
COc1ccc(N2CCN(CCCSC)C(C)C2)cc1 (centres undefined)	-2	-7
CC(C)c1cc(C(=O)N2CCCC(Nc3ccc4c(c3)OCCO4)C2)on1 (centres undefined)	8	4
COc1ccc(-c2c(C)nn3c2ncc2c(=O)n(-c4nc(SC)n[nH]4)ccc23)cc1	2	4

Other results follow.
Compound	NPYLR7 ag	NPYLR7 ag max-min
CC1=CC(C)C(CNCCN2CCNCC2)C(C)C1 (centres undefined)	2	-2
C#CCN(CC#C)C(=O)CCCn1cncn1	32	29
CN(Cc1ncn[nH]1)C(=O)C12CC3CC(CC(C3)C1)C2	5&-10	3&-9
CCOC(=O)C1(CCCc2ccccc2)CCN(Cc2nccn2CC)CC1	3	4
FC(F)C(F)(F)CCN1CCOC(c2ccc(Cl)c(Cl)c2)C1 (centres undefined)	11	12
O=C1Nc2ccc(Br)cc2C1=O	2	0
CC1(NC(=S)Nc2n[nH]c(N)n2)CCS(=O)(=O)C1 (centres undefined)	11	7
COc1ccc2c(c1OC)C(=O)OC2c1c(-c2ccccc2)[nH][nH]c1=O (centres undefined)	3	0
CCOc1ccccc1C(=O)Nc1cc(C(C)(C)C)nn1-c1cc(Cl)ccc1Cl	0	-2
Cc1cc(C)n(CC(=O)NNS(=O)(=O)c2ccc(C#N)cc2)n1	3	4
COc1ccc(Cn2ncc3cc(C(=O)O)cnc32)c(OC)c1	-11	-12
CCOc1ccccc1C(=O)NC1CCN(C(=O)c2cn(-c3ccc(C)cc3)nn2)CC1	-9	-10
Cc1ccccc1NC(=S)Nc1cccc(S(=O)(=O)N2CCCC2)c1	4	2
COc1ccc(OC)c(C2SC(C)C(=O)N2CCN2CCN(C(=O)c3cccs3)CC2)c1 (centres undefined)	2	8
O=C(c1cc2ccccc2oc1=O)N1CCc2c([nH]c3ccccc23)C1c1ccccn1 (centres undefined)	-3	-6
CCN(CC)c1nc(-c2ccccc2)nc2c1CN(C(=O)c1ccc([N+](=O)[O-])cc1)CC2	0	7
CCC(C)(C)c1ccc(OCCCCNC(=O)c2cc(-c3ccc(OC)cc3OC)nn2-c2ccc(OC)cc2)c(C(C)(C)CC)c1	-1	13
CCN(CC)S(=O)(=O)c1ccc2c(c1)CCN2	-1	-3
CSc1ccc(CN(C)CC(=O)NCC2CCCCC2)cc1	0	3
CCCCC1C=CCN1C(=O)c1sccc1S(N)(=O)=O (centres undefined)	-7	-10

Given with two lines to a compound: 15 of the compounds above
Results follow in this order: NPYLR7 ag, NPYLR7 ag max-min
O=C1Nc2ccc(Br)cc2C1=O
    2, 0
CC1(NC(=S)Nc2n[nH]c(N)n2)CCS(=O)(=O)C1 (centres undefined)
    11, 7
COc1ccc2c(c1OC)C(=O)OC2c1c(-c2ccccc2)[nH][nH]c1=O (centres undefined)
    3, 0
CCOc1ccccc1C(=O)Nc1cc(C(C)(C)C)nn1-c1cc(Cl)ccc1Cl
    0, -2
Cc1cc(C)n(CC(=O)NNS(=O)(=O)c2ccc(C#N)cc2)n1
    3, 4
COc1ccc(Cn2ncc3cc(C(=O)O)cnc32)c(OC)c1
    -11, -12
CCOc1ccccc1C(=O)NC1CCN(C(=O)c2cn(-c3ccc(C)cc3)nn2)CC1
    -9, -10
Cc1ccccc1NC(=S)Nc1cccc(S(=O)(=O)N2CCCC2)c1
    4, 2
COc1ccc(OC)c(C2SC(C)C(=O)N2CCN2CCN(C(=O)c3cccs3)CC2)c1 (centres undefined)
    2, 8
O=C(c1cc2ccccc2oc1=O)N1CCc2c([nH]c3ccccc23)C1c1ccccn1 (centres undefined)
    -3, -6
CCN(CC)c1nc(-c2ccccc2)nc2c1CN(C(=O)c1ccc([N+](=O)[O-])cc1)CC2
    0, 7
CCC(C)(C)c1ccc(OCCCCNC(=O)c2cc(-c3ccc(OC)cc3OC)nn2-c2ccc(OC)cc2)c(C(C)(C)CC)c1
    -1, 13
CCN(CC)S(=O)(=O)c1ccc2c(c1)CCN2
    -1, -3
CSc1ccc(CN(C)CC(=O)NCC2CCCCC2)cc1
    0, 3
CCCCC1C=CCN1C(=O)c1sccc1S(N)(=O)=O (centres undefined)
    -7, -10

Remaining list, next part:
Compound	NPYLR7 ag	NPYLR7 ag max-min
Cc1ccccc1SC1CCN(C(=O)Cc2nn[nH]n2)CC1	3	2
O=C(CSc1ccccn1)NCCN1Cc2ccccc2OC(c2ccccc2F)C1 (centres undefined)	1	-1
CC1CC(C)CN(C(C)(C)CN)C1 (centres undefined)	14	9
COC(=O)c1cccnc1N1CCC(CO)(Cc2cccc(C(F)(F)F)c2)CC1	2	11
Cc1cccc(OCCC(=O)Nc2ccc3c(c2)oc(=O)n3C)c1C	11	4
CCOC(=O)c1c(NC(=O)C2CC2)sc(C(=O)Nc2ccccc2)c1C	-4	-11
COc1cc(-c2ccc3c(c2)COC2(CCN(C(=O)c4cc(F)ccc4C)CC2)O3)cc(OC)c1OC	-4	-12
CCCNC(=O)Cn1nc(-c2ccc(OC)cc2)c2sc(C)nc2c1=O	0	-3
COc1cccc(NC(=O)CCC2CCN(C(=O)c3cnn(C(C)C)c3)CC2)c1	11	2
COc1ccc(Cl)cc1-c1nc(SC(C)C#N)n[nH]1 (centres undefined)	0	0
COc1ccc(CC(=O)Nc2c3c(nn2-c2ccc(Cl)cc2)CS(=O)(=O)C3)cc1OC	-2	-4
COCCN=C(NC(=O)c1cccc(C(F)(F)F)c1)OCC(C)C	16	20
CC(=O)NCC(=O)N(Cc1ccco1)C(C(=O)Nc1c(C)cccc1C)c1ccccn1 (centres undefined)	6	10
Cc1nc(-n2nc(-c3cccs3)cc2NC(=O)c2ccco2)[nH]c(=O)c1C	4	2
Cc1ccccc1CC1(CO)CCCN(C(=O)c2cccc(N3CCOCC3)c2)C1 (centres undefined)	19	16
COC(=O)COC1C[C@](OCc2cccc(C)c2)(C(=O)NCC2CC2)C[C@H]2OC(C)(C)O[C@@H]12 (some centres undefined)	17	15
O=C(CC(NCCN1CCOCC1)C(=O)O)Nc1ccccc1 (centres undefined)	6	-4
Cc1nn(CCSc2ccccc2F)c(=O)c(C#N)c1C	2	2
O=C(Nc1nnc(SCc2cc(F)cc(F)c2)s1)c1cccs1	0	1
CCOC(=O)C1=C(C)N=c2s/c(=C/c3ccco3)c(=O)n2C1c1ccc(OC(C)=O)c(OC)c1 (centres undefined)	2	0
CS(=O)(=O)CCNC(=O)N1CCC(c2cccc3ccccc23)CC1	-6	-5
COc1cccc(S(=O)(=O)NCC(=O)N2CC(C)OC(C)C2)c1 (centres undefined)	9	13
Cc1ccc(Oc2cnn(-c3ccc(Cl)c(Cl)c3)c(=O)c2Nc2ccc(C(=O)N3CCN(C)CC3)cc2)cc1	11	17
COCc1ccc(C(=O)N2CCCC(CCC(=O)NCc3ccc(C)o3)C2)s1 (centres undefined)	18	8
O=S(=O)(Cc1ccccc1Cl)Nc1cccc(N2CCCS2(=O)=O)c1	4	1
COc1cccc(C2NC(=O)NC(C)=C2C(=O)Nc2ccc(Cl)cc2)c1 (centres undefined)	2	2
COCc1[nH]n2c(=O)c(Cc3ccccc3)c(C)nc2c1-c1ccc(OC)cc1	-17	-22
CS(=O)(=O)C1CCC(OC(=O)c2cccc(Cl)c2)C1 (centres undefined)	3	2
CCCc1ccccc1N1C(=O)CSC1c1cccc(NC(=O)c2ccc(Br)cc2)c1 (centres undefined)	3	5
Cc1cc(=O)n2nc(N3CCC(C(=O)N4CCN(C)CC4)CC3)sc2n1	6	3
O=C1C=C(NCCc2cc(Br)c(O)c(Br)c2)C(=O)c2ccccc21	-3	-6
Cc1ccc(C(=O)N/N=c2/oc3ccccc3cc2-c2nc3ccccc3[nH]2)cc1	-3	-8
CC(NS(=O)(=O)Cc1ccc(Br)cc1)c1ccccn1 (centres undefined)	-2	-2
C#CCNC(=O)N(C1CC1)C(C)C(C)C (centres undefined)	23	10
CSc1ccc(C=C2SC(N)=NC2=O)cc1	4	1
CCN1CCN(c2c(CN(CCOC)C(=O)c3ccc([N+](=O)[O-])cc3)c(C)nn2-c2ccccc2)CC1	3	16
CC(=O)N(Cc1cccnc1)c1nc2c(F)cccc2s1	-13	-11
